Compound activity: PubChem BioAssay, Fisher Drug Discovery Resource Center
NPYLR7 agonist: activates Aedes aegypti NPYLR7 receptor; HEK293T NPYLR7/Galpha15, GCaMP6s calcium fluorescence; activation, % at 10 µM; 0.15% of 270,000 active; in the data active means activation above about 40%;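 further: 0% = vehicle and 100% = reference agonist at the receptor; some compounds past the cut are filed as inactive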
NPYLR7 agonist max-min: second read-out of NPYLR7 agonist, no call of its own (marks repeat the call); activation, %; measured here: Max-Min RFU normalised activation; some inactives read as strong as hits;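 span of the calcium signal over five minutes; 0% = vehicle and 100% = native peptide agonist; compound fluorescence can raise it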
* hit, by the source's call.

SMILES	NPYLR7 agonist	NPYLR7 agonist max-min
S=C(NCc1cn2ccsc2n1)Nc1ccccc1	-8.7	-14.5
CCc1oc2ccccc2c1CN1CCc2[nH]cnc2C1c1cccnc1 (stereo not drawn)	1.0	2.5
CC(C)N(C(=O)CS(=O)(=O)Cc1ccccc1Cl)c1ccccc1	11.8	7.2
CC1(C)CC(c2[nH]cnc2-c2ccccc2)CCO1 (stereo not drawn)	58.3*	56.2*
O=C(CN1C(=O)CCOc2ccccc21)Nc1nc(-c2cccs2)cs1	-1.6	-1.5
COc1ccc(-n2[nH]c3c4c(ncc3c2=O)CCCCC4)cc1	-10.3	-16.7
Cc1nc(C(=O)Nc2cccc(CS(=O)(=O)C3CCCCC3)c2)cs1	-0.2	15.2
CN(CCc1cn[nH]c1)CC(=O)Nc1nc(C(C)(C)C)cs1	1.3	-1.4
CCS(=O)(=O)c1cccc(C(=O)N(CCCN(C)C)c2nc3c(F)cc(F)cc3s2)c1	-5.1	-6.3
Cc1csc(C(C)(C)NCc2csc(-c3ccccc3F)n2)n1	4.9	4.3
C/C(=N/Nc1cc(Cl)nc(C)n1)c1ccccc1	-11.5	-16.0
CCC(=O)Nc1c(-c2ccccn2)nsc1C(=O)N1CCN(c2ccccc2C)CC1	-9.2	-10.4
COc1ccc(S(=O)(=O)N(C)CCCN2c3ccccc3CCc3ccccc32)cc1	-7.2	-10.6
COCCCN(CC(=O)N(CCc1ccc(OC)c(OC)c1)Cc1ccc(C)s1)C(=O)Nc1c(Cl)cccc1Cl	-4.6	-11.6
Cc1ccccc1-n1ncc2c1ncn1c(C3CCCCC3)nnc21	-4.2	-6.2
Cn1c(=O)[nH]c(=O)c2c1nc(CN1CCN(c3cccc(Cl)c3)CC1)n2CCN1CCOCC1	0.9	32.3
O=C(OC(C(=O)NC1CC1)c1ccccc1)C1CC(=O)N(c2ccccc2F)C1 (stereo not drawn)	12.2	7.2
CCOC(=O)c1cc(-c2ccc(CC)cc2)n(C2CCN(C(=O)C(C)Oc3ccccc3)CC2)n1 (stereo not drawn)	3.6	3.1
CCOC(=O)Cc1n[nH]c(=S)n1C1CCCCC1	6.1	5.0
C#CCOc1c(Cl)cc(/C=N\O)cc1Cl	-2.9	1.0
CCCCC(=O)N(C)c1c(CC)nc2c(OCC3CCCCC3)cccn12	4.2	5.7
Cc1cc(C(=O)OCc2cc(-c3ccc4c(c3)OCCO4)on2)c(C)o1	-1.8	-2.5
Cc1cc(=O)n2c(n1)NC(N1CCCCC1)=NC2c1ccccn1 (stereo not drawn)	12.7	13.7
CCOc1ccc2c(c1)C(C)=CC(C)(C)N2C(=O)CNC(C)(C)C	0.6	1.4
CCOC(=O)c1cc(-c2ccccc2C)n(-c2ccc(C(=O)NCCc3cccs3)cc2)n1	6.2	4.0
Cc1ccc(S(=O)(=O)N2CCC(C(=O)OC3CCCCNC3=O)CC2)c(C)c1 (stereo not drawn)	9.3	7.0
COc1cccc(CNc2nc(CN3CCOCC3)nc3sc4c(c23)CCC4)c1	-4.8	-6.2
CC(O)CN(CC(=O)N1CCc2ccccc21)c1ccccc1 (stereo not drawn)	-0.7	-1.7
C=CCN1C[C@@H]2C[C@@H](C(N)=O)N(C(=O)C3CCCC3)c3cccc(c32)S1(=O)=O	1.6	10.1
COc1ccc(N2C(=O)CSC2c2ccc(Br)s2)cc1 (stereo not drawn)	-5.1	-9.5
O=C(CSc1ncnc2c1oc1ccccc12)Nc1ccc(O)cc1	8.2	3.6
Cc1ccc(CNC(=O)N2CCCC(C(F)(F)F)C2)cc1 (stereo not drawn)	-0.9	-1.7
C=CCNCC(=O)N1CCc2sccc2C1c1ccc(Cl)cc1 (stereo not drawn)	-0.1	3.7
CS(=O)(=O)c1ccc2nc(NC(=O)CCC(=O)O)sc2c1	-11.0	-13.0
Cc1cc(C)cc(NC(=O)CSc2nc3[nH]ncc3c(=O)[nH]2)c1	-2.9	-4.0
COc1ccccc1-c1nc(Cn2nnc(C(=O)Nc3ccc(C)cc3C)c2C)c(C)o1	4.0	1.7
CCNC(=O)N1CCC(NC(=O)c2cc(CC(C)C)nn2C)CC1	11.2	-3.5
COc1ccc(-c2cnnc(N3CCN(CC(=O)NC(C)C)CC3)n2)cc1	-6.1	-7.8
Cc1cc(C)c2c(c1)NC(=O)C2CC(=O)NCc1cnn2ccccc12 (stereo not drawn)	-1.0	-5.4
CCN(CC)C1CCN(C(=O)c2ccc(OC3CCN(Cc4ccccn4)CC3)cc2)C1 (stereo not drawn)	-1.7	-2.4

Pulled one by one from the list above (2):
SMILES	NPYLR7 agonist	NPYLR7 agonist max-min
CS(=O)(=O)c1ccc2nc(NC(=O)CCC(=O)O)sc2c1	-11.0	-13.0
CC(O)CN(CC(=O)N1CCc2ccccc21)c1ccccc1 (stereo not drawn)	-0.7	-1.7

The listing continues:
SMILES	NPYLR7 agonist	NPYLR7 agonist max-min
Cc1ccc2ccccc2c1CN1CCC(N2CCCC2=O)CC1	-0.2	-3.2
COc1cc(C(=O)NCc2ccco2)cc(OC)c1OC	-4.2	-9.9
CC1c2cc(O)c(O)cc2CCN1C(=O)Nc1cccc(F)c1 (stereo not drawn)	-7.4	-11.8
Cc1csc(=NC(C)C)n1/N=C\C(C)c1ccccc1 (stereo not drawn)	-0.1	-0.7
CCOc1ccc(-n2nnc3c(N4CCN(C(=O)COc5ccc(Cl)cc5)CC4)ncnc32)cc1	-3.4	-8.8
COc1ccc(OC)c(C2CCCN2C(=O)C=Cc2ccc(Cl)c([N+](=O)[O-])c2)c1 (stereo not drawn)	3.9	-0.5
O=C(Nc1ccc(OCC2CCCO2)cc1)N1CCc2ccccc2C1 (stereo not drawn)	-18.2	-23.1
CSCCNCc1c(C(=O)N(C)C)nc2ccc(Cl)cn12	14.3	1.8
CCn1c(-c2ccoc2C)n[nH]c1=S	3.0	3.1
CCOc1ccc(C(=O)NCCc2csc3nc(-c4cccc(C)c4)nn23)cc1OCC	3.9	0.3
CC(C)Cc1ncc2c(n1)CN(C(=O)c1cncc(Cl)c1)C2	0.8	-1.2
CCOc1ccc(-n2cc(C(=O)OCc3ccc(N4CCCC4=O)cc3)c3ccccc3c2=O)cc1	-5.7	-7.6
Cc1cccc(NC(=O)C2CCN(c3ccc(-c4ccc(F)cc4)nn3)CC2)n1	-10.0	-10.5
C[N+]1(C)CCC[C@H]1C(=O)O	-3.0	-10.4
COc1ccccc1NC(=O)c1nn(C)cc1Br	-15.6	-19.3
O=[N+]([O-])c1cc(Cl)ccc1NS(=O)(=O)c1cccc(C(F)(F)F)c1	0.5	-4.2
Cc1nc(-c2ccccc2)ccc1C(=O)NC(C)C1CC1 (stereo not drawn)	-0.9	-0.6
CN(C)c1ccc(C(=O)Nc2cc(N3CCOC3=O)ccc2F)cc1F	-0.5	-1.3
CCOCCCn1c(NS(=O)(=O)N(C)C)nc2ccccc21	5.8	7.7
NCCNc1ccc([N+](=O)[O-])cc1	-3.1	-4.5
CCOC(=O)c1c(NC(=O)c2ccc(F)cc2)c(-c2ccc(OC)c(OC)c2)cn1Cc1ccccc1	5.8	0.4
COc1ccc(C(=O)NCCCOc2cccc([N+](=O)[O-])c2)c(OC)c1	-3.6	-3.7
O=C(O)CN1C(=O)/C(=C\c2cc(Cc3ccccc3)cc([N+](=O)[O-])c2O)SC1=S	20.1	20.9
CCOC(=O)c1nn(-c2ccc(C)cc2)c(=O)cc1OCc1ccccc1	1.6	0.3
CC1Oc2ccccc2OC1C(=O)NCc1ccnc(N2CCCC2)c1 (stereo not drawn)	0.9	-0.4
O=C(NC1CCCc2ccccc21)c1cncn1-c1ccc(-c2cc(C(F)(F)F)cc(C(F)(F)F)c2)cc1 (stereo not drawn)	10.3	11.6
O=C(Cn1cnc2c(Cl)cc(Cl)cc2c1=O)NC(=O)NCc1ccccc1	10.6	5.2
COc1ccc(OCCN2CCC(C(=O)N(C)C(c3ccccc3C)c3ncccc3C)CC2)cc1 (stereo not drawn)	18.6	10.4
Cc1cc(S(=O)(=O)N2CCCC(NC(=O)C(C)C)C2)ccc1F (stereo not drawn)	10.3	5.1
O=C(CN(c1ccccc1)S(=O)(=O)c1ccccc1F)NCC(F)(F)F	-3.2	-1.6
CCCOc1ccccc1C1C(C(=O)OC)=C(C)NC2=C1C(=O)CC(c1ccccc1)C2 (stereo not drawn)	7.8	5.4
CSC(C)C(=O)NC1CCN(c2ncnc3nc[nH]c23)CC1 (stereo not drawn)	3.9	-1.4
COc1ccc(-c2cccc(-c3ccc(NC(=O)c4c(F)cccc4F)cc3)n2)cc1	1.1	7.4
Cc1cc(Br)cc(C)c1OC(C)C(=O)Nc1ccc(S(=O)(=O)N(C)C)cc1 (stereo not drawn)	-3.0	-4.5
OC(CNc1ccc2nncn2n1)COc1ccccc1 (stereo not drawn)	-8.1	-8.3
CCOCCCNC(=O)c1cc(NC(=O)C(Cl)c2ccccc2)ccc1N1CCC(Cc2ccccc2)CC1 (stereo not drawn)	1.0	7.3
O=C(Nc1ccccc1Cl)c1ncccc1C(O)c1ccccc1 (stereo not drawn)	1.0	8.8
O=C(Nc1ccc(Cl)cc1)c1cc2ccccc2oc1=O	-0.5	6.7
COc1ccc2nc(NC(=O)C3CCCN(C(=O)C(C)C)C3)sc2c1 (stereo not drawn)	1.5	-6.9
O=c1ccc(-c2cccs2)nn1CCNS(=O)(=O)c1cccc(C(F)(F)F)c1	1.9	-0.8

One compound at a time, as listed above.
Cc1cc(Br)cc(C)c1OC(C)C(=O)Nc1ccc(S(=O)(=O)N(C)C)cc1 (stereo not drawn) is listed with NPYLR7 agonist = -3.0; NPYLR7 agonist max-min = -4.5
O=C(O)CN1C(=O)/C(=C\c2cc(Cc3ccccc3)cc([N+](=O)[O-])c2O)SC1=S is listed with NPYLR7 agonist = 20.1; NPYLR7 agonist max-min = 20.9
O=C(Cn1cnc2c(Cl)cc(Cl)cc2c1=O)NC(=O)NCc1ccccc1 is listed with NPYLR7 agonist = 10.6; NPYLR7 agonist max-min = 5.2

Rewritten with two lines to a compound: 2 of the compounds above
Second line of a record: NPYLR7 agonist | NPYLR7 agonist max-min
O=C(Cn1cnc2c(Cl)cc(Cl)cc2c1=O)NC(=O)NCc1ccccc1
 : 10.6 | 5.2
O=C(Nc1ccccc1Cl)c1ncccc1C(O)c1ccccc1 (stereo not drawn)
 : 1.0 | 8.8

The listing continues:
SMILES	NPYLR7 agonist	NPYLR7 agonist max-min
Cc1noc(C)c1-c1nc2c([nH]1)CC(c1ccc(Cl)cc1)CNC2=O (stereo not drawn)	-0.4	-2.5
CC(C)N(CCC(=O)NC1CCN(Cc2ccccc2)CC1)c1nc(Cc2ccc(Cl)cc2)ns1	2.6	13.8
Cc1ccccc1-n1nc(C(C)(C)C)cc1NC(=O)CN(CCc1ccccc1)C(=O)c1cccs1	-1.0	6.1
Cn1nc(-c2ccc(NS(=O)(=O)c3cccs3)cc2)ccc1=O	-0.3	-1.2
COc1ccccc1C(C)N(C)C(=O)Nc1ccc(N2CC(C)OC(C)C2)c(F)c1 (stereo not drawn)	9.0	2.0
Cc1ccc(F)cc1C(=O)N1CCC(C(F)(F)F)(C(F)(F)F)C1	1.8	0.0
Cc1cccc(CN2CCN(C(=O)c3cn(C4CCCCC4)nn3)CC2=O)c1	4.4	1.6
Nc1ncnc2nc(Sc3ncnc4ccccc34)[nH]c12	10.6	6.9
COc1ccc(C(=O)N2CCN(C(C(=O)Nc3ccc(Cl)cc3)C3CCCC3)CC2)cc1 (stereo not drawn)	-3.4	20.9
Cc1cc2nc(-c3cc(NC(=O)c4ccccc4[N+](=O)[O-])ccc3Cl)oc2cc1C	1.2	2.5
Cn1c(SCC(=O)Nc2nccs2)nnc1-c1ccc(=O)n(C)c1	4.0	3.0
CC(C)c1cnc2c(c1SCC(=O)Nc1ccc(C(N)=O)cc1)c(=O)n(C)c(=O)n2C	1.4	6.7
O=c1oc2c3c(ccc2cc1-c1ccccc1)OCN(C1CCS(=O)(=O)C1)C3 (stereo not drawn)	17.5	25.8
CCC(CC1CCCC1)C(=O)O (stereo not drawn)	13.1	4.3
CN=c1scc(-c2ccc(Cl)cc2)n1N=Cc1ccc([N+](=O)[O-])o1	1.2	-11.1
O=C(Nc1cnc2n1CCCC2)C1(S(=O)(=O)c2ccccc2)CC1	-4.6	-10.0
Cc1cccc2c1C(=O)NC1(CCN(C(=O)c3ccc(Cl)cc3)CC1)N2	4.5	12.0
Cc1ccc(NC(=O)C(=O)NCCN2CCNCC2)cc1	-13.9	-24.7
Cc1nc2c(c(N3CCCC3)n1)CN(C(=O)Nc1cccc3ccccc13)CC2	5.9	10.8
CC(=O)C1=C(O)C(=O)N(CCCNCCO)C1c1cccc(F)c1 (stereo not drawn)	5.7	6.8
COC(=O)c1ccc2c(=O)n(-c3cc(OC)cc(OC)c3)c(N3CCN(C(C)C)CC3)nc2c1	-4.0	-6.1
CNc1cc(-c2ccccc2N(C)C)ncn1	4.5	4.7
Cc1[nH]c2ccccc2c1CC(=O)N1CCC2(CCCO2)CC1	0.4	-0.5
COc1cccc(-c2nc(SCCN3CCCCC3)c3c(=O)n(C)c(=O)n(C)c3n2)c1	-2.7	-7.8
Cn1ncc2c1CCC/C2=N/Nc1ccc(C(=O)O)cc1	14.8	11.0
CCCCOC(=O)N1CCC(=O)N(CC(C)(C)O)C[C@H]2COc3cc(OC)ccc3[C@H]21	-0.8	1.5
Fc1ccccc1OCCSc1nc2ccccc2n1Cc1ccccc1	0.2	1.6
O=C(CSc1ccc2nnc(-c3cccnc3)n2n1)NCC1(N2CCOCC2)CCCCCC1	12.2	4.1

Ordered by count of non-hydrogen atoms (ascending): three of the compounds above
SMILES	NPYLR7 agonist	NPYLR7 agonist max-min
CNc1cc(-c2ccccc2N(C)C)ncn1	4.5	4.7
COc1cccc(-c2nc(SCCN3CCCCC3)c3c(=O)n(C)c(=O)n(C)c3n2)c1	-2.7	-7.8
COC(=O)c1ccc2c(=O)n(-c3cc(OC)cc(OC)c3)c(N3CCN(C(C)C)CC3)nc2c1	-4.0	-6.1

Not all compounds are listed; rates above refer to the full screens.
